MT1-MMP act inh: blockers of MT1-MMP proenzyme processing, primary screen, HT1080 RFP-PRO-GFP cells, GFP/RFP fluorescence; Matrix metalloproteinase-14 (Homo sapiens), P50281; GFP/RFP ratio fluorescence, overnight; percent of plate control window, DMSO zero; GFP/RFP ratio change, % at 20 µM; 360,000 tested, 0.061% active; AID 651647, 2012;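 active means GFP/RFP ratio change of at least 30% with cell ATP level not reduced by more than half and red fluorescence within 50% of control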; further: strong numbers were not always called active
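Material – HT1080 RFP-PRO-GFP cells · Control set – DMSO wells and RFP-L50D-GFP cells · Incubation – overnight cell settling, then overnight compound exposure, 37 °C, 5% CO2 · Compound dosing – single-point 20 µM compound, 1% DMSO · Read-out – GFP/RFP fluorescence ratio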
Rce1 inh: yeast Rce1p protease inhibitors, primary screen, biochemical, fluorescence, cell-free homogeneous | CAAX prenyl protease 2 (Saccharomyces cerevisiae (strain ATCC 204508 / S288c)), Q03530 | yeast membranes, quenched prenylated peptide cleavage fluorescence | calls only | 290,000 tested, 0.27% active | AID 2563, 2010;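 active means fall in fluorescence gain of 50% or more versus controls, with final raw signal at or below 3038400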;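 further: plate controls were neutral control wells for no effect and wells lacking membranes for full effect; tested at 10 µM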
Target sequence (Q03530 whole entry, looked up): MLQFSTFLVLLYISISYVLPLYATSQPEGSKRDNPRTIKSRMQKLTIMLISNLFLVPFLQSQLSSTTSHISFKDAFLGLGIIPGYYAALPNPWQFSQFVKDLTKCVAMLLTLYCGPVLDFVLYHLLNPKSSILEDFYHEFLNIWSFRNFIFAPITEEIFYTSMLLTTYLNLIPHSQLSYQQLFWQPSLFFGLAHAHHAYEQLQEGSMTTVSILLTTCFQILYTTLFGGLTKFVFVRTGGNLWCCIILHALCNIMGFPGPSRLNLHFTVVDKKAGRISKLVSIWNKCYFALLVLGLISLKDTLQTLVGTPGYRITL
UUG fidelity: modulators of yeast start codon fidelity, primary screen, whole organism, S. cerevisiae, single point, plate reader; S. cerevisiae UUG-firefly luciferase reporter, luminescence/redox ratio; activity score, % at 18.7 µM; 350,000 tested, 0.13% active;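 active means replicate mean at a twofold rise or more, about +100% in these data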;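 further: firefly luciferase made from a UUG start codon reports start codon fidelity; reporter light over untreated wells divided by growth signal over untreated wells; some hits fall short of that in this replicate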
eIF4H inh: human eIF4H binding inhibitors, primary screen, translation initiation inhibitor project, biochemical, uHTS, fluorescence polarization. inhibition, % at 35 µM. AID 2012, 2009. 290,000 tested, 0.94% active. eIF4H fluorescence polarization binding assay. Eukaryotic translation initiation factor 4H (Homo sapiens), Q15056;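 active means 50% or more with normal probe brightness, or confirmed in later tests; about a fifth of its hits are not listed in these tables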;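 further: calls also rest on retests at 20 µM and on dose response follow-up; 0% = protein and probe with vehicle and 100% = probe without protein; strong numbers were not always called active; many hits fall short of the cut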
Env fusion inh: inhibitors of HIV-1 Env-driven cell-cell fusion, primary screen, HeLa-JRFL effector, CEM21 target cells, luciferase. 360,000 tested, 1.1% active. AID 651610, 2012. inhibition, % at 12.3 µM;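 active means mean replicate inhibition score of at least 50 and every replicate individually at or above 50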;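 further: 0% = plate neutral controls and 100% = maraviroc near 300 nM; one replicate is shown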
CSC inhib: cancer stem cell viability inhibitors, primary screen, luminescence; inhibition, % at 7.5 µM; 300,000 tested, 1.1% active; AID 2717, 2010; cancer stem cell-like cells viability;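 active means mean at 75% or more and at least half the replicates too; tested in HMLE shEcad cells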;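 further: 0% = median of negative and 100% = median of positive control wells; the first replicate is given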
PABP FP inh: PABP poly(A) RNA binding inhibitors, primary screen, biochemical, fluorescence polarization, uHTS; 290,000 tested, 1% active; Polyadenylate-binding protein 1 (Homo sapiens), P11940; inhibition, % at 35 µM;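 active means 50% or more with normal probe brightness, or confirmed in later tests; about a fifth of its hits are not listed in these tables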;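 further: calls also rest on retests at 20 µM and on dose response follow-up; controls were probe without protein and protein plus probe with vehicle; some compounds called inactive have numbers as strong as hits; many hits fall short of the cut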
MT1-MMP act inh RFP: second read-out of MT1-MMP act inh, no call of its own (marks repeat the call); RFP signal change, %; measured here: RFP expression control read;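 0 = vehicle wells; hits needed this value within 50% of zero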
* hit, by the source's call; i = inactive; x = no result given; & = joins results of further samples; [ ] = remark or other dose. Only part of the results is shown; count on the stated rates, not on these rows.

Sample of the layout, 2 compounds:
molecule,MT1-MMP act inh,MT1-MMP act inh RFP,Rce1 inh,UUG fidelity,eIF4H inh,Env fusion inh,CSC inhib,PABP FP inh
O=C(NNS(=O)(=O)c1ccccc1[N+](=O)[O-])c1ccncc1,-3,3,i,x,0,-8,3,1
O=C(NNc1cccc(Cl)n1)Nc1ccc(F)cc1,0,0,i,-8,-7,1,-5,0

Main list, repeating the preview:
molecule,MT1-MMP act inh,MT1-MMP act inh RFP,Rce1 inh,UUG fidelity,eIF4H inh,Env fusion inh,CSC inhib,PABP FP inh
O=C(NNS(=O)(=O)c1ccccc1[N+](=O)[O-])c1ccncc1,-3,3,i,x,0,-8,3,1
O=C(NNc1cccc(Cl)n1)Nc1ccc(F)cc1,0,0,i,-8,-7,1,-5,0
CCCNC(=O)C[C@@H]1CC[C@@H]2[C@H](COC[C@H](O)CN2C(=O)c2cc(Cl)cc(Cl)c2)O1,-1,5,x,4,x,25,x,x
COc1ccc(NC(=O)/C(C#N)=C\c2cc(C)n(-c3ccc(Oc4ccc([N+](=O)[O-])cn4)cc3)c2C)cc1,-8,-4,i,-16,-7,x,3,6
CCOC(=O)c1cc([N+](=O)[O-])sc1NC(=O)c1ccc(S(=O)(=O)N2CC3(C)CC2CC(C)(C)C3)cc1 (stereo not drawn),-6,-17,i,x,3,43,44,-1
O=C(NCCCN1CCCCC1)c1ccc(CS(=O)c2ccc(Cl)cc2)o1 (stereo not drawn),4,5,i,-21,18,8,-9,3
CCn1c(SCC(=O)OC(C)C)nnc1-c1ccccc1,-1,2,i,-30,2,1,-16,12
O=C(NCc1ccccc1)c1cc(-c2ccncc2)nc2ccccc12,0,-1,i,-6,-8,8,5,4
Cc1ccccc1NC(=O)CN1CCc2ccccc2C1,3,-2,i,-5,2,-6,-4,-2
CCOc1ccc(NC(=O)Cn2cc(C(C)=O)c3ccccc32)cc1,2,-10,i,-10,-9,-4,3,-5
S=c1[nH]nc(-c2n[nH]c3c2CCC3)n1/N=C/C=C/c1ccco1,-3,-1,i,-10,90*,-10,-1,68*
COCCOC(=O)C1=C(C)NC2=C(C(=O)CCC2)C1c1cc2c(cc1Br)OCO2 (stereo not drawn),2,3,i,-13,-9,x,-13,2
O=C(Nc1cccnc1)c1ccccc1O,2,5,i,-17,4,-21,x,3
CN(C)S(=O)(=O)c1cccc(C(=O)NCC2CCCO2)c1 (stereo not drawn),0,2,i,-10,-5,x,1,3
O=C1NC2(CCCCC2)C(=O)N1CC(=O)N1CCc2ccccc21,-1,5,x,-10,x,2,0,x

Some of the entries so far, field by field:
COc1ccc(NC(=O)/C(C#N)=C\c2cc(C)n(-c3ccc(Oc4ccc([N+](=O)[O-])cn4)cc3)c2C)cc1
- MT1-MMP act inh: -8
- MT1-MMP act inh RFP: -4
- Rce1 inh: i
- UUG fidelity: -16
- eIF4H inh: -7
- Env fusion inh: x
- CSC inhib: 3
- PABP FP inh: 6

CCOC(=O)c1cc([N+](=O)[O-])sc1NC(=O)c1ccc(S(=O)(=O)N2CC3(C)CC2CC(C)(C)C3)cc1 (stereo not drawn)
- MT1-MMP act inh: -6
- MT1-MMP act inh RFP: -17
- Rce1 inh: i
- UUG fidelity: x
- eIF4H inh: 3
- Env fusion inh: 43
- CSC inhib: 44
- PABP FP inh: -1

O=C(NCCCN1CCCCC1)c1ccc(CS(=O)c2ccc(Cl)cc2)o1 (stereo not drawn)
- MT1-MMP act inh: 4
- MT1-MMP act inh RFP: 5
- Rce1 inh: i
- UUG fidelity: -21
- eIF4H inh: 18
- Env fusion inh: 8
- CSC inhib: -9
- PABP FP inh: 3

CCn1c(SCC(=O)OC(C)C)nnc1-c1ccccc1
- MT1-MMP act inh: -1
- MT1-MMP act inh RFP: 2
- Rce1 inh: i
- UUG fidelity: -30
- eIF4H inh: 2
- Env fusion inh: 1
- CSC inhib: -16
- PABP FP inh: 12

The listing continues.
molecule,MT1-MMP act inh,MT1-MMP act inh RFP,Rce1 inh,UUG fidelity,eIF4H inh,Env fusion inh,CSC inhib,PABP FP inh
CC(=O)N1c2ccc(S(=O)(=O)N3CCC(C(=O)N4CCN(c5cccc(C(F)(F)F)c5)CC4)CC3)cc2CC1C (stereo not drawn),0,-18,i,-5,-3,13,8,1
COc1ccc(CNC(=O)C(C)N=C2NS(=O)(=O)c3ccccc32)cc1OC (stereo not drawn),3,-1,i,-8,-8,-29,-9,8
Cc1ccc(-c2csc3nc[nH]c(=S)c23)cc1,5,-4,i,x,6,-12,10,-20
Cc1cc(NC(=O)CCSc2ccc(Cl)cc2)no1,1,8,i,x,7,8,8,-3
CCCCNC(=O)Nc1ccccc1C(=O)NCc1ccco1,-2,-1,i,-12,10,-2,-10,13
Cc1cccc(/C(N)=N/OC(=O)Cc2cccs2)c1,-5,-2,i,-9,-1,-181,1,-5
COc1ccc(S(=O)(=O)NCc2ccco2)cc1N(C)S(=O)(=O)c1ccccc1,-9,-8,i,x,-4,-6,-18,-10
NC(=O)c1ccccc1OCC(=O)O,-2,2,i,-22,-2,x,-1,14
CC(C)c1ccccc1NC(=O)COC(=O)COc1ccccc1[N+](=O)[O-],2,12,i,x,-3,7,-12,6
O=C(NNC(=O)C1CCN(Cc2cccc(F)c2)CC1)c1cccs1,4,4,i,-14,10,8,-5,-11
O=[N+]([O-])c1ccc(NN=C(c2ccccc2)c2ccccc2)nc1,-4,-6,x,-22,x,12,x,x
COC(=O)C1=C(C)N(Cc2ccccc2)C(=NCCCOC(C)C)N[C@H]1c1ccccc1,-1,-7,x,-2,x,-50,0,x
Cc1ccsc1C(=O)N1CCN(S(=O)(=O)c2cccc(F)c2)CC1,3,4,i,2,x,-9,-2,x
Cc1ccc(S(=O)(=O)N(C)c2ccc(OCC(=O)Nc3nc4ccccc4s3)cc2)cc1,-13,-28,i,5,-2,26,56,1
CCOC(=O)c1cc2sc(C)cc2n1CC(=O)N1CCN(C(=O)c2ccco2)CC1,4,-3,i,-1,2,x,-2,4
COc1ccc(Cl)cc1N(C(=O)Nc1cccc(Cl)c1)C1=NCC(C)S1 (stereo not drawn),-3,-3,i,-16,-2,-23,-4,-1
CC(NC(=O)c1ccccc1F)c1nnc(SCC(=O)NC2=NCCS2)n1C (stereo not drawn),1,3,i,-13,90*,-14,-4,75*
O=C(Cn1cc2c(n1)CCCC2)N1CCCc2ccccc21,9,2,i,-19,-3,13,8,-8
C[C@@H]1CN([C@@H](C)CO)C(=O)c2cc(Br)cnc2O[C@H]1CN(C)Cc1ccc(-c2ccccc2)cc1,4,-3,x,1&-8,x,19,x,x
COc1ccccc1CNC(=O)C(C)NS(=O)(=O)c1ccc(Br)cc1 (stereo not drawn),1,5,i,-18,6,x,-1,2
CCC(C)(C(=O)NC1CCCC1)N(Cc1ccco1)C(=O)c1ccc2c(c1)OCO2 (stereo not drawn),13,-3,i,11,-13,-72,-2,-9
CCc1ccc(C2N(c3ccc(OC)cc3)C(=O)C3CCCN32)cc1 (stereo not drawn),-2,-1,i,-8,1,-5,-15,1
COc1ccc(-c2cc(C(=O)N3CCc4ccccc4C3)no2)cc1OC,-2,3,i,-5,-7,-19,-11,-2
COC(=O)c1cc(NC(=O)c2cccc([N+](=O)[O-])c2C)ccc1Cl,11,1,x,-11,4,6,9,1
CCOc1ccc(NC(=O)COc2ccc(OC)cc2)cc1,0,1,i,x,-4,4,11,2
O=C(CCCSc1nc2ccccc2[nH]1)Nc1nnc(-c2ccccc2)o1,1,1,i,4,-5,-12,2,5
N#Cc1c(NC(=O)CN2CCOCC2)oc(-c2ccccc2)c1-c1ccccc1,3,-1,i,-8,-5,x,-4,-6
COc1ccc(C(C)C)cc1S(=O)(=O)N1CCN(C)CC1,-3,5,i,x,6,-7,-6,6
CCOC(=O)N1CCN(C(=O)C(=O)Nc2sc3c(c2C(N)=O)CC(C)(C)OC3)CC1,0,1,i,x,-9,-2,-3,-3
CC(Sc1nnc(-c2cccnc2)n1-c1ccccc1)C(=O)NCc1ccc2c(c1)OCO2 (stereo not drawn),13,-1,i,-30,12,x,-9,-5
Cc1ccc(-n2c(N)cc(=O)nc2SCC(=O)N2CCN(c3ccccc3)CC2)cc1,2,1,i,-5,-3,29,-9,0
CN(C)CCC(=O)NCC1OCCc2ccccc21 (stereo not drawn),3,8,i,-7,-3,x,-10,-1
COc1ccccc1-c1nnc(SCC(=O)NC2CCCCC2)n1N,2,6,x,11,x,-17,x,x
Cc1cc(C)c(NC(=O)c2ccoc2C)c(C)c1,-6,-2,i,3,3,x,-9,5
O=C(/C=C/c1cccs1)N1CCC2(CC1)Oc1ccc(Cl)cc1C(=O)C21CC(c2cccnc2)=NO1 (stereo not drawn),4,-1,i,-18,-3,-121,45,-7
CC(=O)Nc1ccccc1NC(=O)c1cc(C)cc(C)c1,3,6,i,x,-2,10,10,-2
CCOC(OCC)c1cn(Cc2ccc3c(c2)C(=O)c2ccccc2C3=O)nn1,x,x,i,x,5,2,14,11
COc1ccc(NC(=O)CSc2nc(N)c3cc4c(nc3n2)CC(C)(C)OC4)cc1,2,-1,i,-16,-7,-8,-12,8
CCOc1cccc(C(=O)N2CCCCC2c2cccnc2)c1 (stereo not drawn),2,6,i,-3,-6,29,x,-11
COc1ccc(S(=O)(=O)Nc2cccc3c2O[C@H](CN(C)CC2CCCCC2)[C@@H](C)CN([C@H](C)CO)C3=O)cc1,0,3,x,-2&6,x,1[16.7 µM],-14,x
C#CCOCCOCCOCCNc1nc(N2CCN(C(=O)CCCCCCCCCCNC(=O)[C@H](CO)n3cc(CCCSC)nn3)CC2)nc(N2CCN(C(=O)CCCCCCCCCCNC(=O)[C@H](CCCCN)n3cc(CCO)nn3)CC2)n1,-2,2,x,22,x,-33,-6,x
COc1ccccc1OCc1ccc(C(=O)Nc2ccc(Cl)cn2)o1,5,-2,i,x,2,5,23,-5
O=C(CSc1nc2c(c(=O)n1-c1ccc(Cl)cc1)SCC2)NCC1CCCO1 (stereo not drawn),-5,-1,i,-5,-9,-1,-6,22
COC(=O)c1cccc(NS(=O)(=O)c2ccc(OC)c(OC)c2)c1C,-3,-13,i,-6,5,20,4,10
COC(=O)c1ccc(/C=N/Nc2nc(N3CCCCC3)nc(N3CCCCC3)n2)cc1,0,2,i,x,-10,-24,2,1
Cc1ccc(-n2c(CCc3ccccc3)n[nH]c2=S)cc1C,0,2,i,4,-2,-7,x,18
Fc1ccc(CNCc2ccccc2Cl)cc1,3,5,i,x,1,4,-2,-3
Cc1ccc(C(O)c2ncc(-c3ccccc3F)[nH]2)c(C)c1 (stereo not drawn),-1,1,x,-10,x,-70,x,x

Random excerpt: two compounds from above
molecule,MT1-MMP act inh,MT1-MMP act inh RFP,Rce1 inh,UUG fidelity,eIF4H inh,Env fusion inh,CSC inhib,PABP FP inh
COC(=O)c1cccc(NS(=O)(=O)c2ccc(OC)c(OC)c2)c1C,-3,-13,i,-6,5,20,4,10
Cc1cc(C)c(NC(=O)c2ccoc2C)c(C)c1,-6,-2,i,3,3,x,-9,5

Source: PubChem (several laboratories)
